TsaE inh – displaces an ADP probe from E. coli YjeE (TsaE) | AID 605 | Potency, µM | hit rate 0.05% among 71,000 | purified YjeE, fluorescence polarisation of a bound ADP probe; active = well fitted falling curve; inconclusive = weaker or top-dose-only fall, or a rising curve; inactive = flat or poorly fitted curve;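 note: top concentration of the series not given in the record; excess ADP was the control for the full effect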
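Purified YjeE (10 uM) with BODIPY Texas Red-labeled ADP probe (2 uM); compounds pin-transferred, 15 min at room temperature. Binding inhibition read as decreased fluorescence polarization; ADP titration as control.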
Bst PK mod – modulators of Bacillus stearothermophilus pyruvate kinase. AID 361. Potency, µM. partly purified Bacillus stearothermophilus pyruvate kinase, luminescence ATP production; ribose 5-phosphate activator present at AC10. hit rate 1.2% among 51,000; in the data active means potency below about 11 µM; inconclusive means mostly about 12 µM to 25 µM; inactive means weaker than that;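 the screen sought inhibitors and activators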;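 note: potency is the fitted concentration of half-maximal effect; scaled between full activation by ribose 5 phosphate and full inhibition by luteolin; about four in five hits inhibit and the cells do not say which; series up to 57 µM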
The depositor's hits bear a star; i = inactive; u = inconclusive; x = no result given. A portion of the library (hit frequency here may not be typical).

Sample of the layout, 3 compounds:
TsaE inh | Bst PK mod | SMILES
i | x | O=C(C1=C(O)C(=O)N(CCN2CCOCC2)C1c1ccncc1)c1ccco1 (configuration not stated)
i | >57 | CC(=O)Nc1sc(C)c(C)c1C(=O)OC1CCOC1=O (configuration not stated)
i | x | COCCN1C=C(C(=O)OC)C(c2ccc3c(c2)OCO3)C(C(=O)OC)=C1

The list itself, previewed entries included:
TsaE inh | Bst PK mod | SMILES
i | x | O=C(C1=C(O)C(=O)N(CCN2CCOCC2)C1c1ccncc1)c1ccco1 (configuration not stated)
i | >57 | CC(=O)Nc1sc(C)c(C)c1C(=O)OC1CCOC1=O (configuration not stated)
i | x | COCCN1C=C(C(=O)OC)C(c2ccc3c(c2)OCO3)C(C(=O)OC)=C1
i | x | O=C(COc1ncnc2sccc12)N1CCN(S(=O)(=O)c2ccc(Cl)cc2)CC1
i | x | Cc1coc2c(C)c3oc(=O)c4c(c3cc12)CCCC4
i | >57 | O=c1c2ccccc2nnn1CSc1nnc(-c2ccco2)o1
i | x | O[C@@H](C1=C/C(=C\c2ccncc2)c2ccccc21)c1ccncc1
i | x | CS(=O)(=O)N1CCC[C@@]2(CCN(Cc3ccccc3)C2)C1
i | >57 | CC(C)N1C(=S)SC(C)(C)C1NO (configuration not stated)
i | >57 | Cc1ccc(SC/C(O)=C(\C#N)c2nc3ccccc3n2C)cc1

Quoted at random: five records from the list
TsaE inh | Bst PK mod | SMILES
i | x | Cc1coc2c(C)c3oc(=O)c4c(c3cc12)CCCC4
i | x | O[C@@H](C1=C/C(=C\c2ccncc2)c2ccccc21)c1ccncc1
i | x | O=C(COc1ncnc2sccc12)N1CCN(S(=O)(=O)c2ccc(Cl)cc2)CC1
i | >57 | CC(=O)Nc1sc(C)c(C)c1C(=O)OC1CCOC1=O (configuration not stated)
i | >57 | Cc1ccc(SC/C(O)=C(\C#N)c2nc3ccccc3n2C)cc1

Further compounds:
TsaE inh | Bst PK mod | SMILES
i | >57 | CCc1cc2c(CN3CCN(CCO)CC3)cc(=O)oc2cc1O
i | >57 | Cc1cc(N)ccc1-n1c(C)ccc1C
i | x | CCCCCCN(C(=O)CCCCCN1C(=O)NC(c2ccc(-c3ccccc3)cc2)C(C(=O)OCc2ccccc2)=C1C)C(C(=O)NCCCC)c1ccc(-c2ccccc2)cc1 (configuration not stated)
i | >57 | Cc1cc(C)c2cc(C#N)c(NCCCNC(=O)CCC(=O)O)nc2c1
i | x | CCN1c2ccccc2NC2C1C(C(C)=O)C(=O)N2c1ccc(Cl)cc1 (configuration not stated)
i | >57 | COc1ccc2[nH]c(=O)c(CN(CC3CCCO3)C(=O)Nc3ccccc3OC)cc2c1 (configuration not stated)
i | x | O=C1C=CC(=O)c2c1ccc1c2ccc2ccccc21
i | x | CCn1c(C(=O)N2CCC(C(=O)NCc3ccc4c(c3)OCO4)CC2)cc2sccc21
i | x | Cc1ccccc1C(=O)OCn1nnc2ccccc2c1=O
i | >57 | CCN(CC)CCNc1nc2ccccc2n1C

5 entries already listed, arranged by count of non-hydrogen atoms, smallest number first:
TsaE inh | Bst PK mod | SMILES
i | >57 | Cc1cc(N)ccc1-n1c(C)ccc1C
i | >57 | CCN(CC)CCNc1nc2ccccc2n1C
i | x | Cc1ccccc1C(=O)OCn1nnc2ccccc2c1=O
i | >57 | Cc1cc(C)c2cc(C#N)c(NCCCNC(=O)CCC(=O)O)nc2c1
i | x | CCCCCCN(C(=O)CCCCCN1C(=O)NC(c2ccc(-c3ccccc3)cc2)C(C(=O)OCc2ccccc2)=C1C)C(C(=O)NCCCC)c1ccc(-c2ccccc2)cc1 (configuration not stated)

The listing continues:
TsaE inh | Bst PK mod | SMILES
i | x | Cc1cc(Nc2cc(F)ccc2C)n2nc(C)nc2n1
i | >57 | COc1cccc(N2CCN(C3CC(=O)N(c4ccc(C)c(Cl)c4)C3=O)CC2)c1 (configuration not stated)
i | x | COc1ccc(CNc2ncnc3ccc(-c4ccc5c(c4)OCO5)cc23)c(OC)c1
i | >57 | Cc1ccc(C2CC(=O)Nc3sc(C(N)=O)c(N)c32)cc1 (configuration not stated)
i | x | CC(=O)OCC(=O)[C@@]1(O)CC[C@@H]2[C@H]3CCC4=CC(=O)CC[C@]4(C)[C@]3(F)[C@@H](O)C[C@@]21C
i | >57 | O=C1N(c2ccc(Cl)c(Cl)c2)CN(Cc2ccccc2)CN1n1cnnc1
i | >57 | Brc1cnc(N2CCCC2)nc1N1CCOCC1
i | >57 | CCCCOC(=O)CN1C(=O)c2ccc(C(=O)OCCCC)cc2C1=O
i | x | Cc1ccc(-c2nc(-c3nccc4ccccc34)oc2-c2ccccc2)cc1
i | >57 | COc1ccc(C(=O)CSc2nnc(-c3cnccn3)n2Cc2ccco2)cc1
i | >57 | CCCc1cc(-n2ccnc2)n2c(nc3ccccc32)c1C#N
i | x | CC(=O)N1CCC[C@@]2(CCN(C(c3ccccc3)c3ccccc3)C2)C1
i | u | O=C(OC(C(=O)NCc1cccs1)c1ccccc1Cl)c1ccco1 (configuration not stated)
i | x | Cc1cc(NC(=O)CCN2CCC(C(N)=O)CC2)ccc1Br
i | >57 | Cc1ccccc1OCC(=O)Nc1ccc(N2CCN(S(C)(=O)=O)CC2)cc1
i | >57 | Cc1n[nH]c(=O)nc1NCCN(C)C
i | x | COc1cc2c(cc1OC)C(CCN)=NCC2
i | x | Fc1ccc(CSc2nc3ncccc3[nH]2)cc1
i | >57 | Cc1ccc(-n2c(C)nc3c(cnn3-c3ccc(F)cc3)c2=O)cc1C
i | x | O=C(c1cccc(F)c1)N1CCC2(CCN(Cc3ccncc3)CC2)CC1
i | >57 | O=C(NCCCN1CCOCC1)c1csc2c1CCCC2
i | >57 | O=C(NCc1cccnc1)C1CC(c2ccc(F)cc2)=NO1 (configuration not stated)
i | x | COc1ccc(CC(=O)Nc2ccc(-c3nc4cc(C)ccc4o3)c(O)c2)cc1OC
i | x | CCOC(=O)C(C)Oc1cccc2c(=O)n(CC(=O)NCc3ccco3)ccc12 (configuration not stated)
i | >57 | COC(=O)Nc1ccc(S(=O)(=O)Nc2ccccc2F)cc1
i | >57 | Cc1nc(N2CCN(C(c3ccccc3)c3ccccc3)CC2)nc2c1C(=O)CCC2
i | x | Cc1ccc(C(=O)Nc2ccc3c(c2)OCO3)o1
i | i | CCN(CC)CCn1c2ccccc2c2cnc(N=CN(C)C)c(C#N)c21
x | >26 | O=C(O)c1c[nH]c2ccc(S(=O)(=O)N3CCOCC3)cc12
i | u | COC(=O)c1nc2n(n1)C(c1ccc(OC)c(OC)c1OC)C1=C(CCCC1=O)N2 (configuration not stated)
i | x | CC(CCc1ccccc1)NC(=O)C1CCN(C(=O)c2sccc2-n2cccc2)CC1 (configuration not stated)
i | x | CCOC(=O)N1CCN(C2=Nc3cccc4cccc2c34)CC1
i | >57 | CC1(C)OC(=O)C(C(c2ccccc2)C(C#N)C(N)=O)=C(O)O1 (configuration not stated)
i | x | O=C(Cn1cc2c(n1)CCCC2)NCCc1ccccc1
i | x | N#CCCN(Cc1cccnc1)C(=O)Nc1ccc(Cl)c(Cl)c1
i | >57 | COc1ccc(S(=O)(=O)N(C)CC(=O)Nc2ccccc2C(F)(F)F)cc1OC
i | >57 | Cc1ccccc1Nc1nc(N)nc(CSCc2c(C)noc2C)n1
x | >26 | CC1(C)Cc2c(sc3c2C2=NCCN2C=N3)CO1
i | >57 | COc1ccc2cc(C3(C)NC(=O)NC3=O)ccc2c1 (configuration not stated)
i | >57 | Cc1cc(C(=O)OCC(=O)Nc2ccc(S(=O)(=O)N3CCOCC3)cc2)c(C)o1
i | >57 | O=C1NCCN1C(=O)c1ccco1
i | >57 | COc1ccc(N2CCn3c2nc2c3c(=O)n(CCN3CCOCC3)c(=O)n2C)cc1
i | >57 | C=CCN(CC=C)S(=O)(=O)c1ccc(F)cc1
i | x | COc1cc(NC(=O)c2ccc(S(=O)(=O)N(C)C)cc2)cc(OC)c1OC
i | u | O=S(=O)(Nc1ccc2c(c1)OCCO2)c1ccc(Br)s1
i | >57 | Cc1cc(C)n2c(SCC(=O)N(C)C3CCS(=O)(=O)C3)nnc2n1 (configuration not stated)
i | x | CC(C)SC(=N)N
i | x | CCC1(C)OC(=O)N2CCc3c(C)[nH]c4c(C)ccc(c34)C21C (configuration not stated)
i | i | Nc1nc(SCC(=O)N2CCc3ccccc3C2)[nH]c(=O)c1-c1ccccc1
i | x | CCOC(=O)N1CCC(N2CC34C=CC(O3)C(C(=O)Nc3ccc(C(C)C)cc3)C4C2=O)CC1 (configuration not stated)

(cont.)
TsaE inh | Bst PK mod | SMILES
i | >57 | Cc1cc(S(=O)(=O)NCc2ccco2)c(C)s1
i | >57 | CCOC(=O)N1CCN(C(=O)CCCn2c(=S)[nH]c3ccccc3c2=O)CC1
x | >26 | COC(=O)/C=c1/s/c(=C(/C#N)C(=O)N2CCOCC2)n(-c2ccccc2)c1=O
i | x | NC(=O)c1sc(=S)n(-c2ccc(Br)cc2)c1N
i | >57 | O=C(CN(Cc1ccc2c(c1)OCO2)C(=O)CNS(=O)(=O)c1ccccc1)NCC1CCCO1 (configuration not stated)
i | >57 | O=C(Oc1cccnc1)c1ccc(Cl)cc1
i | >57 | Clc1ccc(Br)cc1-c1nc(-c2cccnc2)no1
i | >57 | CCOc1cc(S(=O)(=O)NCCc2ccccc2C)c(OCC)cc1-n1cnnn1
i | >57 | CCN(CC)C(=O)C1CCCN(c2ncnc3c2cnn3-c2cccc(C)c2)C1 (configuration not stated)
i | >57 | CCOc1ccc(CCNC(=O)CN(C)S(=O)(=O)c2ccc3c(c2)CCC(=O)N3)cc1OCC
i | >57 | CCc1nnc(NC(=O)c2ccc(COc3ccc(C)cc3)o2)s1
i | >57 | Cc1cccc(Cn2c(Sc3nc(C)cs3)nc3c2c(=O)[nH]c(=O)n3C)c1
i | >57 | CCOc1ccc2[nH]c(=O)c(C(c3nnnn3Cc3ccco3)N3CCC(C)CC3)cc2c1 (configuration not stated)
i | i | Cc1cc(=O)n2[nH]c(-c3ccc(F)cc3)cc2n1
i | >57 | CC1(C)C(C#N)=C(N)OC2=C1C(=O)CCC2
i | >57 | CCOC(=O)c1nnn(-c2nonc2N)c1CNc1ccccc1
x | >26 | Cc1ccc(OCC(O)CNS(=O)(=O)c2ccccc2C(=O)O)cc1 (configuration not stated)
i | x | N#Cc1cccc(NC(=O)N2CCC3(CC2)CCN(C(=O)c2cnccn2)CC3)c1
i | x | O=C(c1csnn1)N1CCC2(CCCN(Cc3cc(C(F)(F)F)cc(C(F)(F)F)c3)C2)CC1
i | >57 | Cc1cc(C)nc(Nc2n[nH]c(COc3ccc(Cl)cc3)n2)n1
i | x | COc1ccc(Oc2ncc3ncc(=O)n(Cc4cccc(OC)c4)c3n2)cc1
i | >57 | O=C(O)CCSc1nnc(-c2ccncc2)n1-c1ccccc1
i | u | O=C(Nc1nc(-c2ccc(Cl)s2)cs1)c1cccs1
i | >57 | COc1ccc(C2Nc3ccccc3C(=O)N2Cc2ccco2)cc1COc1ccc(NC(C)=O)cc1 (configuration not stated)
i | >57 | O=C(c1cc2c(s1)CCCC2)N1CCN(C(=O)C2CCCO2)CC1 (configuration not stated)
i | >57 | CC(C)(C)c1cc(CN(CCO)CCO)cc(C(C)(C)C)c1O
i | >57 | O=c1c2ccccc2sc2nc(C3CCCCC3)n(Cc3ccco3)c(=O)c12
i | >57 | COc1ccccc1N(C)S(=O)(=O)c1ccc(C(=O)OCC(=O)NCc2ccco2)cc1
i | >57 | CCOC(=O)N1CCN(Cc2nc3c(c(=O)[nH]c(=O)n3C)n2Cc2ccccc2C)CC1
i | >57 | COc1ccc(OC)c(Nc2cc(C)nc3ccccc23)c1
x | >26 | Cn1c2c(c(=O)n(C)c1=O)C(NC(=O)C(C)(C)C)(C(F)(F)F)C(=O)N2 (configuration not stated)
i | >57 | O=S(=O)(c1ccc(S(=O)(=O)n2cnc3ccccc32)cc1)N1CCCCCC1
i | >57 | CCCc1[nH]nc2c1C(c1ccc(OC)cc1OC)C(C#N)=C(N)O2 (configuration not stated)
x | >11 | CCOC(=O)C1=C(C)NC(=O)NC1c1ccc2c(c1)OCO2 (configuration not stated)
i | x | CCCN1Cc2cccc(C(=O)Nc3ccc(N4CCN(CC)CC4)cc3)c2C1=O
i | i | C(=N\c1nc2ccccc2n1CCN1CCOCC1)/c1cccs1
i | x | COc1ccc(N(CC(=O)O)S(=O)(=O)c2ccc(OC)c(OC)c2)cc1
i | >57 | CCN1C(=O)/C(=C\N2CCCCCC2)SC1=S
i | >57 | CCOC(=O)C1CCN(CC(=O)Nc2c(C(=O)OC)[nH]c3ccccc23)CC1
i | >57 | COc1ccc2c(CC(=O)Nc3nnc(C4CC4)s3)coc2c1
i | >57 | CCN(CC)S(=O)(=O)c1ccc(NC(=O)c2ccc(NS(C)(=O)=O)cc2)cc1
i | >57 | Cn1c(=O)cc(OCC(=O)NCc2cccnc2)c2ccccc21
i | x | CN(C(=O)CSc1nc(N)nn1-c1ccccc1)c1ccccc1
i | x | COc1cccc(NC(=O)CSc2nnc(Cn3c(=O)sc4ccccc43)n2C)c1
i | >57 | Cc1cc(C)n(-c2nc(SCC(=O)NCC3CCCO3)c3c4c(sc3n2)CCCC4)n1 (configuration not stated)
i | >57 | Cc1nnc(Sc2nc3c(c(=O)n(C)c(=O)n3C)n2Cc2ccc(Cl)cc2)s1
i | >57 | CCCc1cc(=O)[nH]c(Nc2cc(OC)ccc2OC)n1
i | >57 | CCNS(=O)(=O)c1ccc(OCCNS(C)(=O)=O)cc1
i | >57 | CC(OC(=O)c1cc2sccc2n1C)C(=O)NCC1CCCO1 (configuration not stated)
i | >57 | CCOC(=O)c1c(CN2CCOCC2)n(-c2ccccc2)c2ccc(O)cc12
i | >57 | O=S(=O)(NCCc1csc(-c2ccccc2)n1)c1ccc2c(c1)OCCO2
i | >57 | CCOCCCNC(=O)c1ccc2c(c1)OCO2
i | >57 | CCOC(=O)CSc1nnc(CCc2nc3ccccc3[nH]2)n1C
